Bioassay records (PubChem BioAssay)
D2 potentiator – Beta-Arrestin HTS for Positive Allosteric Modulators of the Human D2 Dopamine Receptor: Potentiators; DiscoveRx D2 beta-arrestin cells, luminescence, 90 min; 100% = 57 uM dopamine signal; potentiation, % (no concentration beside the values); 0.23% of 360,000 active; D(2) dopamine receptor (Homo sapiens), P14416; active = potentiation of 50% or more; inconclusive = 30% to 50%; inactive = 30% or less;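 also: compound concentration not given in the record; tested on top of an EC20 dose of dopamine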
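D2 cells co-treated with compound plus 50 nM dopamine (EC20) for 90 min at 37 deg C to detect potentiation. Beta-arrestin recruitment was read as enzyme-fragment luminescence after 1 h at ambient temperature. Full response was set by 57 uM dopamine.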
TRPV1 PAM – HTS Assay for Compounds that Act as Potentiators of the Vanilloid Receptor 1. TRPV1-expressing cells, Fluo-8 calcium influx, capsaicin EC20 potentiation; host cell line not named in the record; control for the full effect not named in the record. potentiation, % at 8.33 µM. 0.02% of 320,000 active; active means potentiation above 80%; inconclusive means 30% to 80%; inactive means below 30%; also: 0% is about no effect
Target sequence (Q8NER1 whole entry, looked up): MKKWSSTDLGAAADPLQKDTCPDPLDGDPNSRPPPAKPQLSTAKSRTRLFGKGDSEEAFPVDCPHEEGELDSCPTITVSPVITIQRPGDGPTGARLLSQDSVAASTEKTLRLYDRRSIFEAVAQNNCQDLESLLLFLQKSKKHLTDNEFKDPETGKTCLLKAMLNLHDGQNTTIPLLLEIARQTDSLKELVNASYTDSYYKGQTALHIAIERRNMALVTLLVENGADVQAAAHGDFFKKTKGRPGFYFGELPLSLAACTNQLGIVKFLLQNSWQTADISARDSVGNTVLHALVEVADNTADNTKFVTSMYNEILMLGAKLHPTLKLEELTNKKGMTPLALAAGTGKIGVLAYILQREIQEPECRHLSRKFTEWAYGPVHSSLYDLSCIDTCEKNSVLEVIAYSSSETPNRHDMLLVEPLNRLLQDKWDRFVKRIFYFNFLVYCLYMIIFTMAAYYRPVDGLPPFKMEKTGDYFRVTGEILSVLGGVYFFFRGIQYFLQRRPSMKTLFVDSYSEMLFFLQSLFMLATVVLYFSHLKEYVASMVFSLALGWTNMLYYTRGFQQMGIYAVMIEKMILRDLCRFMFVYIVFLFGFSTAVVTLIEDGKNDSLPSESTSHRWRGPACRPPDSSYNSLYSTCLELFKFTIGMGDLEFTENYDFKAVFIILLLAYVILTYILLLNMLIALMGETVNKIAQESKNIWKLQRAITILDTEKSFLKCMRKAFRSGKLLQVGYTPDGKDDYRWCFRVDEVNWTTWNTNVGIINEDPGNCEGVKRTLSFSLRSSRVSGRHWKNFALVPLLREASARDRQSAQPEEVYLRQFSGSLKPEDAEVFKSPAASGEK
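Fluo-8 calcium influx in TRPV1-expressing cells, kinetic read (ex 480/em 520 nm). Compound added and read 3 min for agonist activity, followed by capsaicin at EC20 final and 2 min further read for enhancement.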
CtBP-E1A inh – qHTS Assay for Inhibitors of the CtBP/E1A Interaction | CtBP / adenovirus E1A interaction (AlphaScreen) | AlphaScreen GST-E1A/His-CtBP binding, 1536-well; stronger effect = lower value; control for the full effect not named in the record | activity change, % (test concentration not listed) | 0.49% of 340,000 active | AID 651724, 2012; in the data active means activity change below about -65%; inconclusive means about -30% to -65%; inactive means above about -30%; also: % is scaled to controls: 0 for no effect and ±100 for the full control effect; compound concentration not given in the record
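In 5 uL wells, 23 nL compound meets equimolar GST-E1A and His-CtBP (5X stock 125 nM each) for 2 h, 37 °C. Beads (5X, 50 ug/mL) then 1 h, 37 °C, dark.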
PINK1 expr mod – A Quantitative High throughput Screen to Identify Chemical Modulators of PINK1 Expression | PINK1 immunofluorescence, high-content cytometry, 24 h | Potency, µM (top dose mostly 76.6 µM), without a hit: at the highest dose activation (PINK1 increase), actives largely listed as activators | 0.2% of 410,000 active; active = well fitted activation curve with a large enough effect; inconclusive = small, poorly fitted or top-dose-only effect; inactive = flat fitted curve, though single readings scatter; cell line not stated here;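 also: potency is read from the fitted curve at half-maximal effect; % of control where 0% means no effect; nearly all actives have a fitted effect of over 65% in size; a mitochondrial uncoupler was the plate control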
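Readout is PINK1 immunofluorescence, quantified alongside mitochondrial, cell and nuclear markers by laser-scanning microplate cytometry. Cells from a stable line were exposed to compound titrations (5 concentrations) for 24 hours, with CCCP controls.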
D2 agonist – Beta-Arrestin HTS for Positive Allosteric Modulators of the Human D2 Dopamine Receptor: Agonists; DiscoveRx PathHunter D2 beta-arrestin, luminescence, 90 min; 100% = 57 uM dopamine signal; activation, % (no concentration beside the values); 0.084% of 360,000 active; AID 624465, 2012; in the data active = activation above about 40%; inconclusive = about 15% to 40%; inactive = below about 15%; also: compound concentration not given in the record; the text of the record calls up to 30% inactive
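Agonist mode: compounds alone added to overnight-plated D2 PathHunter cells for 90 min at 37 C, with 57 uM final dopamine (EC100) defining full response. Beta-arrestin recruitment detected by chemiluminescent reagent, read after 1 h at ambient temperature.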
Sfp PPTase inh – qHTS Assay for Inhibitors of Bacillus subtilis Sfp phosphopantetheinyl transferase (PPTase). 4'-phosphopantetheinyl transferase ffp (Bacillus subtilis), Q9F4F7. Potency, µM, for the others: max response, negative = inhibition, usual class: inhibitors. 3.5% of 310,000 active. Biochemical Sfp PPTase activity, qHTS; active = well fitted inhibition curve with a large enough effect; inconclusive = small, poorly fitted or top-dose-only effect, or another doubt; inactive = no such curve, though single readings can be large or run the other way;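 also: the enzyme is Sfp with the accession as filed and its product quenches rhodamine fluorescence; potency is read from the fitted curve at half-maximal effect; 0% = enzyme reaction without inhibitor and -100% = no enzyme wells; top concentration of the series not given in the record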
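Step 1, compound plus 15 nM Sfp-PPTase, 15 min, room temperature. Step 2, add rhodamine-CoA (5 uM) and BHQ-2-YbbR (12.5 uM). Step 3, read 525/598 nm fluorescence at 0 and 30 min.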
Six1-Eya2 inh – qHTS Assay for Inhibitors of the Six1/Eya2 Interaction | AlphaScreen GST-Six1/His-Eya2 binding, biochemical; stronger effect = lower value; control for the full effect not named in the record | activity change, % (no concentration beside the values) | 0.56% of 360,000 active; in the data active = activity change below about -65%; inconclusive = about -30% to -65%; inactive = above about -30%; also: % is scaled to controls: 0 for no effect and ±100 for the full control effect; compound concentration not given in the record
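Six1/Eya2 binding was read as AlphaScreen signal after compounds were pinned into GST-Six1 plus His-tagged Eya2 (5X stock 250/500 nM) in pH 8.0 Tris/NaCl/TCEP buffer, beads added, then incubated 1 h, 37 C, dark.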
An asterisk follows results filed as active; ? = inconclusive; . = not tested or not shown; & = joins results of further samples; [ ] = dose if it differs, or a comment.

entry	compound	CtBP-E1A inh	PINK1 expr mod	Sfp PPTase inh	D2 agonist
1	CCCCOc1ccc2c(c1)/C(=C(\C(Cl)=C(Cl)Cl)[N+](=O)[O-])N2	-2	-3.5%	15%	-3.0
2	COc1ccc(-c2nn(C)c(=O)c3ccccc23)cc1NS(C)(=O)=O	5	-1.2%	21%	-2.4
3	Nc1nnc(SCCOc2cccc(Br)c2)s1	1	3.3%[38.3 µM]	6%	-0.3
4	CCOC(=O)c1c(-c2ccccc2)oc2ccc(OC(C)=O)cc12	6	.	-2%	1.0
5	COc1ccc(CN(C)C(=O)/C=C/[C@H]2O[C@@H](n3cc(C)c(=O)[nH]c3=O)C[C@@H]2O)cc1OC	-7	1.6%	.	-3.4
6	C=Cn1c(C(=O)O)ccc1-c1ccc(CC)cc1	.	-0.1%	3%	-2.3
7	Cc1ccc([N+](=O)[O-])c(OCc2ncc(Cl)n2C)c1	-3	-2.0%	6%	-1.7
8	Cc1cc(-n2c(C)cc(C(=O)COC(=O)CN=C3NS(=O)(=O)c4ccccc43)c2C)no1	-14	-0.9%	11%	-2.2
9	COC(=O)c1c(NC(=O)C2COc3ccccc3O2)sc2c1CCN(Cc1ccccc1)C2 (stereo not given)	-12	-1.7%	1%	-4.6
10	O=C(CCCOc1ccc(Cl)cc1)NCC1CCCO1 (stereo not given)	3	-0.6%	6%	0.4
11	COc1ccc2c(c1)C(=O)N(c1ccc(C)cc1C)C(=O)C2	5	7.1%	0%	5.5
12	Cc1cc(C)c2c(n1)SCC(=O)N2CC(=O)Nc1ccc(F)cc1	8	0.3%	22%	2.3

entry	TRPV1 PAM	D2 potentiator	Six1-Eya2 inh
1	?	-11	-5
2	-7	-3	0
3	-8	-9	0
4	-2	-14	11
5	.	-8	14
6	-2	-9	-2
7	5	-4	4
8	-8	-8	-10
9	8	-35	-15
10	8	6	12
11	8	6	-3
12	6	-2	2

The listing continues:
entry	compound	CtBP-E1A inh	PINK1 expr mod	Sfp PPTase inh	D2 agonist
13	CN(CCNC(=O)C1CCN(S(=O)(=O)N2CCOCC2)CC1)CCc1ccccc1	-1	-1.0%	8%	2.9
14	CC1CC(C)CN(CCCOc2ccccc2[N+](=O)[O-])C1 (stereo not given)	1	-1.1%	-68%	-1.8
15	CCCNc1nc(Nc2ccc(C)cc2)nc(N2CCCC2)n1	-2	?	?	1.1
16	COc1cc(NC(=O)COC(=O)CSc2cc(C)ccc2C)c(C)cc1[N+](=O)[O-]	0	-0.5%	9%	-2.8
17	O=C(O)CCC(=O)c1ccc2sc3ccccc3c2c1	-4	-3.2%	.	-3.4
18	O=C(CCc1c[nH]c2ccccc12)N[C@@H](Cc1c[nH]c2ccc(O)cc12)C(=O)O	-13	-0.1%	12%	6.4
19	CC(C)CN(C(=O)COC(=O)Cc1c[nH]c2ccccc12)C1CCS(=O)(=O)C1 (stereo not given)	-2	-2.7%	9%	0.0
20	COc1ccccc1N1CCN(C(=O)C2CC(=O)N(c3ccccc3)C2)CC1 (stereo not given)	2	-0.6%	17%	-0.1
21	O=[N+]([O-])c1cc(S(=O)(=O)/N=C(/c2ccccc2)N2CCOCC2)ccc1Cl	.	4.0%	7%	5.6
22	CC1(c2nnc(Cc3ccccc3)o2)CC(c2ccc(Br)cc2)=NO1 (stereo not given)	4	1.1%	.	1.4
23	Cc1nc(N)nc(N)c1Oc1ccc(Cl)cc1	-2	0.9%	.	-0.4
24	O=C(NNS(=O)(=O)c1ccccc1)c1cc2cc3ccccc3nc2s1	-23	-3.1%	8%	-4.6

entry	TRPV1 PAM	D2 potentiator	Six1-Eya2 inh
13	-6	-26	9
14	7	-34	4
15	-9	-5	-3
16	1	4	-3
17	.	-12	0
18	-7	-4	-5
19	-20	-1	1
20	-4	-8	2
21	-27	-5	4
22	.	-3	5
23	.	0	0
24	-4	-13	-21

Going on with the list:
entry	compound	CtBP-E1A inh	PINK1 expr mod	Sfp PPTase inh	D2 agonist
25	Cc1ccc(S(=O)(=O)Nc2ccc(C(=O)N3CCN(c4ccccc4O)CC3)cc2)cc1[N+](=O)[O-]	-22	2.7%	.	7.5
26	CC(C)CN(C(=O)CSc1ncnc2ccccc12)C1CCS(=O)(=O)C1 (stereo not given)	-1	1.2%	.	-6.3
27	CC(=O)Cc1cc(O)c2ccccc2c1OC(=O)c1ccc(Br)cc1	1	6.8%	-3%	15
28	CC(C)Sc1nnc(NC(=O)c2ccc3c(c2)OCO3)s1	-1	9.5%	3%	-1.5
29	Cc1ccc(C)n1-n1cnc2sc(-c3ccccc3)cc2c1=O	-22	14%[38.3 µM]	-1%	-2.8
30	CCc1ccc2[nH]c(=O)c(CN(Cc3ccccc3OC)C(=O)Nc3ccccc3OC)cc2c1	-2	2.1%[38.3 µM]	4%	-1.3
31	CC(C)N(Cc1ccccc1)S(=O)(=O)c1ccc2c(c1)NC(=O)CO2	0	1.4%	2%	-3.3
32	Cc1ccc(/C=C2/SC(=S)N(c3ccc(S(=O)(=O)Nc4nccs4)cc3)C2=O)cc1	-23	6.2%	-31%	-3.8
33	OCCC1CN(CC#Cc2ccccc2)CCN1Cc1ccccc1F (stereo not given)	-9	1.5%	3%	-2.1
34	CC1CCCC(NC(=O)CSc2nnc(C(F)(F)F)n2C)C1C (stereo not given)	6	-1.4%	.	-3.3
35	COc1ccc2nc(-c3ccccc3)nc(C3CCCCC3)c2c1	9	9.2%	.	-1.1
36	O=C(O)CN1C(=O)/C(=C/c2ccsc2)SC1=S	-7	3.4%	?	-5.3

entry	TRPV1 PAM	D2 potentiator	Six1-Eya2 inh
25	10	15	-7
26	1	-17	1
27	.	6	-12
28	-10	-3	2
29	-1	-13	-10
30	-8	-6	-2
31	-19	-13	10
32	9	-3	-24
33	-3	-21	1
34	13	-2	0
35	?	-3	3
36	7	-1	4

The last six entries of the part above are carried over, then new ones follow.
entry	compound	CtBP-E1A inh	PINK1 expr mod	Sfp PPTase inh	D2 agonist
31	CC(C)N(Cc1ccccc1)S(=O)(=O)c1ccc2c(c1)NC(=O)CO2	0	1.4%	2%	-3.3
32	Cc1ccc(/C=C2/SC(=S)N(c3ccc(S(=O)(=O)Nc4nccs4)cc3)C2=O)cc1	-23	6.2%	-31%	-3.8
33	OCCC1CN(CC#Cc2ccccc2)CCN1Cc1ccccc1F (stereo not given)	-9	1.5%	3%	-2.1
34	CC1CCCC(NC(=O)CSc2nnc(C(F)(F)F)n2C)C1C (stereo not given)	6	-1.4%	.	-3.3
35	COc1ccc2nc(-c3ccccc3)nc(C3CCCCC3)c2c1	9	9.2%	.	-1.1
36	O=C(O)CN1C(=O)/C(=C/c2ccsc2)SC1=S	-7	3.4%	?	-5.3
37	COC(=O)c1ccc(Cn2cnc3cnccc32)cc1	-22	1.6%	?	-4.1
38	Cc1ccc(C(C(=O)NCc2ccc(F)cc2)N(Cc2ccco2)C(=O)c2snc(C(N)=O)c2N)o1 (stereo not given)	-1	-2.5%	5%	7.0
39	COC(CNC(=O)C1CC(=O)N(CCc2ccc(C)cc2)C1)OC (stereo not given)	.	-0.4%	12%	6.0
40	O=C(NCCCN1CCOCC1)C(=O)NCC1OCCCN1S(=O)(=O)c1cc(F)ccc1F (stereo not given)	0	-0.8%	16%	10
41	Cc1cc(NS(=O)(=O)c2ccc(NC(=O)c3oc4ccccc4c3C)cc2)no1	-18	4.1%[38.3 µM]	-4%	-4.4
42	Cn1c(SCC(=O)Nc2ccccc2)nc2ccccc2c1=O	-15	0.3%	11%	2.4
43	CC1(C)CC(=O)C(C2=NC3(CCCCC3)Cc3ccccc32)=C(O)C1	-7	-0.2%	18%	-1.0
44	COc1ccc(C2C(C(=O)c3ccco3)=C(O)C(=O)N2CCOCCO)cc1OC (stereo not given)	2	2.8%[38.3 µM]	-24%	1.7
45	CCCCCCc1cc2cc(C(=O)Nc3ccc(OC)cc3)c(=O)oc2cc1O	3	40µM*	9%	-2.5
46	CCOC(=O)c1cc2nc(-c3ccco3)cc(C(F)(F)F)n2n1	3	-0.3%	2%	-0.4
47	O=C1c2ccccc2-c2n[nH]c3cccc1c23	?	0.3%	8%&24%&3%&-6%	0.9
48	COC(=O)C1CCN(C(=O)CSc2nc3ccc(OC)cc3[nH]2)CC1	0	0.6%	11%	-0.9
49	CC(NC(=O)C(CC(=O)OC(C)(C)C)NC(=O)OC(C)(C)C)C(N)=O (stereo not given)	0	1.9%[38.3 µM]	15%	0.6
50	O=C(c1sc2ccccc2c1Cl)N1CCN(CCc2ccccn2)CC1	.	0.6%	9%	4.9

entry	TRPV1 PAM	D2 potentiator	Six1-Eya2 inh
31	-19	-13	10
32	9	-3	-24
33	-3	-21	1
34	13	-2	0
35	?	-3	3
36	7	-1	4
37	21	-5	2
38	6	7	-2
39	-6	-4	6
40	-1	-10	0
41	0	-16	-17
42	-5	0	0
43	-2	-13	0
44	-5	1	-1
45	-1	11	1
46	1	-8	2
47	.	7	?
48	3	-19	1
49	13	-7	4
50	-2	-16	11
